ALR inh: human ALR oxidase inhibition via reduced H2O2. purified ALR, DTT oxidation, H2O2 HRP-luminol luminescence. inhibition, % (test concentration not listed). 3.8% of 290,000 active;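 active = mean and each replicate at 75% or more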;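 also: stock transfer was 7.5 nL into about 7.5 µL; 0% = neutral wells and 100% = wells with inactivated enzyme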
Target sequence (P55789 whole entry, looked up): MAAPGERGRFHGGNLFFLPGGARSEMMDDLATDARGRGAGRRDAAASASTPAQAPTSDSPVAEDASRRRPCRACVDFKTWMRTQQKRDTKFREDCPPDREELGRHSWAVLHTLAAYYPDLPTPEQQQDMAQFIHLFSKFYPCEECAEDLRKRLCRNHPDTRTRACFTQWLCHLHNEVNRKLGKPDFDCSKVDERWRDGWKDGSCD
FGF22 binding: shifts melting point of recombinant human FGF22; Q9HCT0; 1.5% of 340,000 active; recombinant FGF22 thermal shift, SYPRO orange fluorescence; percent of sucrose octasulfate shift, DMSO zero; AID 651658; calls only at 9.99 µM;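 active = melting point raised past a set limit in the mean and every replicate; three in four hits are not shown here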
Target sequence (Q9HCT0 whole entry, looked up): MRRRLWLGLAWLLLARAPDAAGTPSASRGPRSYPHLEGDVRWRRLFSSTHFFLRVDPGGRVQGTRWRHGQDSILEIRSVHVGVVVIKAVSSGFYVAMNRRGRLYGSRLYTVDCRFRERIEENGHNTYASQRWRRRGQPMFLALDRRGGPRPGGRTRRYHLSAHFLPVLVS
Beta2AR agonist: human beta-2 adrenergic receptor agonism by FAP; Am2.2-beta2AR cells, FAP receptor internalization, flow cytometry; reference of the scale not given here; response, % (concentration not given with the values); 0.43% of 340,000 active;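 active = response above a set limit, near 3 SD of response in nonfluorescent compounds, cut at about 42% in these data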;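 also: stock transfer was 100 nL into about 11 µL; a reference agonist was the positive control; negative values mostly stem from fluorescent compounds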
E coli growth: E. coli growth inhibition | Escherichia coli growth, OD600, 23 h; active compounds read low | 0.21% of 330,000 active | OD600 absorbance (test concentration not listed) | AID 1053175;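 active = OD600 absorbance below the run mean of sample wells minus 3.6 SD, in any replicate, cut at about 0.56 in these data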;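 also: stock transfer was 300 nL into about 60 µL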
UCH37 inh: human UCH37 deubiquitinating enzyme inhibition. Q9Y5K5. purified proteasome/UCH37, Ub-AMC cleavage fluorescence. inhibition, % (no concentration beside the values). 0.33% of 330,000 active. AID 588478;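 active = mean of two replicates above 20%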;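 also: 0% = compound-free wells with enzyme and 100% = wells lacking proteasome; stock transfer was 100 nL into about 20 µL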
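Material: Human UCH37 enzyme supplied as purified proteasome complex | Schedule: 30 min compound-proteasome preincubation then 25 min substrate reaction, room temperature | Detection: AMC fluorescence from Ub-AMC cleavage, excitation 355 nm, emission 460 nm | Benchmarks: Wells without proteasome as full block, compound-free enzyme plus substrate as uninhibited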
HNF4A DNA FP: change in binding of human HNF4 alpha to DNA | P41235 | HNF4a-FITC DNA binding, fluorescence polarization, 1 h | activity change, % at 10 µM | 0.3% of 360,000 active | AID 1224865; in the data active = activity change above about 30%, passing the limit was not always enough;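 also: controls were the assay level and a saturating level of protein; the project sought stronger binding though the title names inhibitors; some compounds called inactive have numbers as strong as hits; positive values seem to mean higher polarization but the record does not say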
Target sequence (P41235 whole entry, looked up): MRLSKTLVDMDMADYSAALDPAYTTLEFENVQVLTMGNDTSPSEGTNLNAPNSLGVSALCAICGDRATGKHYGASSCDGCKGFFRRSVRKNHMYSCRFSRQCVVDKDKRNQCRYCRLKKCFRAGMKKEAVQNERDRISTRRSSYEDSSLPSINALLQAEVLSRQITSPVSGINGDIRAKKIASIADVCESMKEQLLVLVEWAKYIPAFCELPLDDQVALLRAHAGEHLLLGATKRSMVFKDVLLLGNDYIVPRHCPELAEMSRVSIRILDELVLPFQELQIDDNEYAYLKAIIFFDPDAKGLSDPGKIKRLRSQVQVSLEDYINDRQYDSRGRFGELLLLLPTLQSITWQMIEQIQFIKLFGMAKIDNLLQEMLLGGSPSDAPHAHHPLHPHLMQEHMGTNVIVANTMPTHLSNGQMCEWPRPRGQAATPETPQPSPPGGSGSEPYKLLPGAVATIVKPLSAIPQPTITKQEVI
Ecoli rRNA inh: inhibits bacterial ribosomal RNA function over humanized ribosomes | E. coli WT GFP vs humanized-ribosome RFP mutants, fluorescence, 24 h; active compounds read low; DMSO median 0, no signal -100 | GFP signal change (wild-type ribosome), % (no concentration beside the values) | 1.6% of 350,000 active | AID 720706;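 active = significant combined selectivity score with lowered wild-type GFP, culture density cut under 30%, mutant RFP and density less affected; inactive = any of these conditions unmet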; also: one replicate is shown; some compounds called inactive have numbers as strong as hits
Ecoli rRNA inh OD600: further read-out of Ecoli rRNA inh, marked with its call; OD600 change, %; measured here: OD600 growth;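 optical density of the mix in the first replicate; 0 = DMSO median and -100 = no signal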
Ecoli rRNA inh RFP: further read-out of Ecoli rRNA inh, marked with its call; RFP signal change, %; measured here: RFP humanized mutant strains;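 first replicate; 0 = DMSO median and -100 = no signal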
Numbers without * were called inactive; i = inactive; nt = not tested or not shown.

Values in the order: FGF22 binding, UCH37 inh, Ecoli rRNA inh, Beta2AR agonist, HNF4A DNA FP, E coli growth, ALR inh, Ecoli rRNA inh OD600, Ecoli rRNA inh RFP
- CCOC(=O)c1ccccc1NC(=O)c1ccc2c(SCC(=O)O)c3c(nc2c1)CCCC3
 : i, -6.3, -10.1, 12.0, -1.7, 0.71, 8.7, -4.8, 2.8
- O=[N+]([O-])c1cccc(S(=O)(=O)c2ccc(NCCOCCO)c([N+](=O)[O-])c2)c1
 : i, 3.3, 3.5, -2.1, 3.4, 0.641, -40.8, 6.2, -5.5
- C/C(COc1ccccc1)=N\NC(=O)c1nnn(-c2nonc2N)c1CSc1ccc(C)cc1
 : i, nt, -0.2, nt, -2.8, nt, nt, 2.7, 1.4
- COCCn1c(C)cc(C(=O)COC(=O)c2ccc([N+](=O)[O-])o2)c1C
 : i, 7.5, -1.8, 0.1, -5.5, 0.665, -20.6, -7.8, -1.7
- CCC(O)(Cc1ccccn1)Cc1ccccn1
 : i, -0.3, 7.2, -6.9, 0.1, 0.699, nt, 5.2, 3.4
- CS(=O)(=O)N(CC(=O)N1CCCC1)c1cc(C(F)(F)F)ccc1Cl
 : i, -0.5, 18.6, -0.7, -5.9, 0.659, -3.6, 6.3, 3.2
- O=C(NC(=S)Nc1ccc2c(c1)OCO2)c1ccccc1
 : nt, -2.7, 0.3, -13.2, 1.7, 0.722, 35.4, 3.9, -1.9
- CCN1CCN(CC(=O)N2N=C(c3cccs3)CC2c2ccc(C)cc2)C(=O)C1=O (stereo unspecified)
 : i, -8.1, -9.1, 0.8, -4.0, 0.682, 1.6, -0.7, -0.3
- O=C(/C=C/c1ccc(Cl)cc1)Nn1c(-c2cccs2)nc2ccccc2c1=O
 : i, -114.3, -2.4, 1.5, -1.3, 0.684, -2.1, 6.4, -0.2
- CCOc1ccccc1N1CCN(CC(=O)Nc2nc(C)c(C(=O)N(C)C)s2)CC1
 : i, 0.1, 3.0, 1.5, 4.4, 0.664, 22.9, 11.2, -0.9
- NC(=O)C1CC(=O)N(c2ccc(OCC(=O)Nc3ccc(Cl)cc3)cc2)C1 (stereo unspecified)
 : i, 0.0, 1.7, -2.5, -0.2, 0.692, -2.5, 3.9, 0.0
- CC(=O)NC(=S)Nc1cccc2ccc(C)nc12
 : i, 8.3, 3.3, 8.1, 3.1, 0.699, -3.7, 1.1, -4.1
- O=C(c1ccccc1)c1cccc(NC(=O)C2CC2)c1
 : nt, 0.9, nt, 1.6, 1.1, 0.659, 4.8, nt, nt
- Cc1ccc(C(=O)COC(=O)c2cc(C)no2)c(C)c1
 : i, 3.0, 1.4, -3.1, 1.2, 0.684, nt, 0.3, 0.7
- CCN(CC)C(=O)Cn1cnc2sc(C(=O)N3CCN(c4ccc(OC)cc4)CC3)c(C)c2c1=O
 : nt, 1.8, nt, -8.7, 1.6, 0.686, nt, nt, nt
- O=C(Cn1cncn1)NCc1cc(F)ccc1F
 : nt, 5.8, 3.6, -0.1, 3.1, 0.727, -4.0, 2.3, 2.5
- Cn1c(=O)c2cc(NC(=O)NCc3ccccc3)ccc2n1C/C=C/c1ccccc1
 : i, nt, -1.4, nt, -4.0, nt, nt, -5.9, -1.5
- Cc1ccc(-n2nc3ccc(NC(=O)/C=C/c4ccco4)cc3n2)cc1
 : i, -6.5, 4.3, -2.3, -5.4, 0.686, 2.7, 0.9, 8.6
- O=C(Cc1ccc([N+](=O)[O-])cc1)N1CCN(c2ccc([N+](=O)[O-])cc2)CC1
 : i, 8.1, 6.1, 18.7, 3.8, 0.674, -0.3, 6.4, -0.2
- CCc1ccc(C(=O)OCC(=O)N(CC)c2c(N)n(Cc3ccccc3)c(=O)[nH]c2=O)cc1
 : i, 1.5, 11.2, 0.0, 2.2, 0.693, 3.5, 12.8, -3.2
- Cc1ccc(C2/C(=C(/O)c3ccc(Br)cc3)C(=O)C(=O)N2Cc2ccco2)o1 (stereo unspecified)
 : nt, 1.3, nt, -0.4, -0.1, nt, 30.6, nt, nt
- COC(=O)C1OC1c1cc([N+](=O)[O-])ccc1OC (stereo unspecified)
 : i, nt, 4.3, 21.5, 3.3, nt, nt, 13.2, -0.6
- O=C(Nc1ccc(/C=C/c2nc3ccccc3o2)cc1)c1c(F)cccc1F
 : nt, -92.4, nt, 5.8, 5.8, 0.848, 2.9, nt, nt
- CCc1ccccc1NC(=O)Nc1ccc2c(c1)OCO2
 : i, 1.1, 15.9, -0.5, 1.3, 0.72, -18.5, 10.9, 3.1
- COCCNC(=O)c1ccccc1N(Cc1ccccc1)S(=O)(=O)c1ccc(C)cc1
 : i, -2.9, -18.9, 0.9, 1.0, 0.693, nt, -37.2, -6.9
- C#Cc1ccc([C@H]2C=C(C(=O)Nc3ccccc3)O[C@@H](OCc3ccc(CO)cc3)C2)cc1
 : i, 4.6, nt, 12.9, 11.9, nt, nt, nt, nt
- CCn1c(SCC(=O)Nc2nccs2)nnc1-c1ccc(S(=O)(=O)N2CCCCC2)cc1
 : nt, 1.7, nt, -6.9, 0.4, 0.692, nt, nt, nt
- COC(=O)c1cc(C)sc1NC(=O)c1ccco1
 : i, -101.4, 1.4, -1.8, 0.2, 0.703, 0.1, 2.3, -1.1
- CC1=C(C(=O)N(C(C)C)C(C)C)CC(CC(=O)NCCc2ccccn2)C(=O)N1Cc1ccc(F)cc1 (stereo unspecified)
 : i, nt, 0.8, nt, 1.5, nt, nt, -1.7, -1.0
- CC(=C\c1ccco1)/C=C1/SC(=S)N(CC(=O)O)C1=O
 : i, nt, 13.5, 7.7, 13.4, nt, 5.4, 10.4, 8.2
- O=C(/C=C/c1ccco1)Nc1scc(-c2ccccc2)c1C(=O)O
 : nt, 15.2, -33.9*, 5.1, -35.5, 0.697, 4.1, -13.0*, -4.5*
- COCCn1c(=NC(=O)CN2C(=O)CCC2=O)sc2cc(S(N)(=O)=O)ccc21
 : nt, 0.2, nt, -11.1, -0.8, 0.711, -2.4, nt, nt
- CCN(CC#CCC1(O)c2ccccc2-c2ccccc21)CCO
 : nt, 1.1, nt, 7.4, 4.2, 0.657, -8.6, nt, nt
- O=C(CSc1ncn[nH]1)Nc1ncc(C(F)(F)F)cc1Cl
 : i, 1.9, -5.3, -10.4, -1.3, nt, -3.7, 2.4, -3.1
- O=C(NCCC1=CCCCC1)C1CC(=O)N(Cc2ccccc2)C1 (stereo unspecified)
 : i, 5.6, -1.4, -7.7, -3.4, 0.727, -4.0, -4.0, -1.4
- O=C(NC(=S)Nc1ccc(CN2CCCCC2)cc1)c1cc2ccccc2o1
 : i, 3.6, 1.5, 9.2, 0.3, 0.661, -10.2, 0.0, 4.0
- CCCc1nn(C)c2c1C(c1ccncc1)C(C#N)=C(N)O2 (stereo unspecified)
 : nt, 5.5, nt, 1.6, -2.8, 0.702, 35.5, nt, nt
- CC(=O)c1cccc(NC(=O)Cc2ccc3c(c2)CCCC3)c1
 : nt, 3.8, nt, 4.3, 3.9, 0.705, -11.3, nt, nt
- Cc1[nH]c2ccc(-c3n[nH]c(=S)n3C)cc2c1C
 : i, 1.3, -15.8*, -2.8, 1.2, 0.671, 98.0*, 1.4*, 4.2*
- CCNC(=S)NN=C1c2ccccc2-c2ccccc21
 : i, 6.8, -20.9, 3.2, -1.7, 0.673, -5.9, -20.8, -9.3

Ordered by the number under UCH37 inh (descending): some entries from above
Compound	FGF22 binding	UCH37 inh	Ecoli rRNA inh	Beta2AR agonist	HNF4A DNA FP	ALR inh	Ecoli rRNA inh OD600	Ecoli rRNA inh RFP
O=C(/C=C/c1ccco1)Nc1scc(-c2ccccc2)c1C(=O)O	nt	15.2	-33.9*	5.1	-35.5	4.1	-13.0*	-4.5*
CCN(CC#CCC1(O)c2ccccc2-c2ccccc21)CCO	nt	1.1	nt	7.4	4.2	-8.6	nt	nt
COCCn1c(=NC(=O)CN2C(=O)CCC2=O)sc2cc(S(N)(=O)=O)ccc21	nt	0.2	nt	-11.1	-0.8	-2.4	nt	nt

Continued:
Values in the order: FGF22 binding, UCH37 inh, Ecoli rRNA inh, Beta2AR agonist, HNF4A DNA FP, E coli growth, ALR inh, Ecoli rRNA inh OD600, Ecoli rRNA inh RFP
- CC(Nc1nc(-c2ccc(F)cc2)cs1)c1nc2cc(C(F)(F)F)ccc2n1CCOCCO (stereo unspecified)
 : i, 1.9, 3.6, 1.1, 1.4, 0.692, -11.1, -11.7, 2.9
- COc1ccc(CC(=O)NC(C)c2nnc(SCC(=O)Nc3nc(C)cs3)n2C)cc1 (stereo unspecified)
 : nt, 1.1, nt, -3.9, 2.3, 0.669, -5.1, nt, nt
- Cc1ccccc1-c1cnc(C(O)c2cccc(C)c2C)[nH]1 (stereo unspecified)
 : i, nt, 9.8, nt, -3.5, nt, nt, 2.1, 1.0
- CCn1c(SCC(=O)N2CCCc3ccccc32)nnc1-c1c[nH]c2ccccc12
 : nt, 6.7, nt, -1.2, 0.3, 0.681, -18.0, nt, nt
- CCCc1nnc(SCC(=O)Nc2ccc(NC(C)=O)cc2)n1-n1cccc1
 : i, 0.5, 0.9, -8.8, 1.5, 0.716, 0.1, 7.8, -3.0
- CCOc1ccc2[nH]c3c(NCCCOC)ncnc3c2c1
 : i, -231.5, -8.0, 6.6, 4.0, 0.619, 13.7, -4.4, -3.4
- c1ccc(-c2ccccc2OCCCCn2ccnc2)cc1
 : i, 0.7, -39.9, -5.1, 2.0, 0.589, -36.1, -64.3, -2.0
- CCOc1cccc(OCCCNCCCOC)c1
 : nt, 2.0, nt, 2.7, -0.3, 0.735, 5.1, nt, nt
- C[C@@H]1COC(=O)CCC/C=C\C[C@@H](CC(=O)N(CCO)Cc2ccccc2)C(=O)N1
 : i, -0.4, 0.6, -0.6, -4.7, 0.714, nt, 2.2, 1.1
- COc1ccc(Cl)cc1NC(=O)CNCc1cccs1
 : i, 3.5, -31.8*, -8.6, 2.2, 0.597, nt, -19.9*, -11.2*
- O=C(CNC1CCCCC1)Nc1ccc(S(=O)(=O)N2CCCCC2)cc1
 : i, 6.4, 3.5, -1.1, -0.2, 0.726, nt, 2.5, 1.5
- CNc1cncc(-c2ccc(O)cc2C)n1
 : i, nt, 17.3, nt, -0.1, nt, nt, 19.7, 0.2
- Cc1ccc(S(=O)C(c2ccccc2)c2ccccc2)cc1 (stereo unspecified)
 : i, 3.3, 13.3, -7.2, -2.7, 0.682, nt, 8.1, 3.9
- O=C(CSc1nc(-c2ccccc2Cl)ns1)c1ccc(Cl)cc1
 : nt, 1.3, nt, 17.3, -0.9, 0.692, 16.0, nt, nt
- CCn1c(=O)c(C(=O)Nc2ccccc2S(N)(=O)=O)c(O)c2ccccc21
 : nt, 1.4, nt, 14.9, -4.0, 0.757, -2.3, nt, nt
- O=C(Nc1ccc(S(=O)(=O)N2CCCCC2)cc1)C1CC(=O)N(c2ccccc2)C1 (stereo unspecified)
 : i, 4.2, 6.7, -4.0, -1.7, 0.694, -7.2, 3.9, -0.2

Only part of the results is shown. The share of hits here may be higher or lower than overall.
